Screening results deposited in PubChem by National Center for Advancing Translational Sciences (NCATS).
Bst PK mod = Pyruvate Kinase | partly purified Bacillus stearothermophilus pyruvate kinase, luminescence ATP production; ribose 5-phosphate activator present at AC10 | Potency, µM | actives 1.2% (n = 51,000); in the data active means potency below about 11 µM; inconclusive means mostly about 12 µM to 25 µM; inactive means weaker than that;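 the screen sought inhibitors and activators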;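 note: potency is the fitted concentration of half-maximal effect; scaled between full activation by ribose 5 phosphate and full inhibition by luteolin; about four in five hits inhibit and the cells do not say which; series up to 57 µM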
TsaE inh = qHTS Assay for Inhibitors of YjeE. tRNA threonylcarbamoyladenosine biosynthesis protein TsaE (Escherichia coli (strain …. purified YjeE, fluorescence polarisation of a bound ADP probe. Potency, µM. actives 0.05% (n = 71,000); active = well fitted falling curve; inconclusive = weaker or top-dose-only fall, or a rising curve; inactive = flat or poorly fitted curve;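 note: top concentration of the series not given in the record; excess ADP was the control for the full effect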
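Fluorescence polarization of a BODIPY Texas Red–ADP probe (2 uM) bound to purified YjeE (10 uM) was read after 15 min room-temperature incubation with compounds. Loss of polarization marks inhibitors; ADP serves as titrated control.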
* hit, by the source's call; i = inactive; ? = inconclusive; . = not tested or not shown. Not all compounds are listed. The share of hits here may be higher or lower than overall.

SMILES	Bst PK mod	TsaE inh
CCCCn1c(NCc2ccccc2O)nc2ccccc21	.	i
CCOc1ccc(C(=O)CN2CCN(S(=O)(=O)c3ccc(F)cc3)CC2)cc1	>57	i
COc1ccc(CCNC2=NCCS2)cc1	>57	i
Cc1ccccc1S(=O)(=O)Cc1ccc(C(=O)N2CCN(c3cccc(C)c3C)CC2)o1	>57	i
O=C(COc1ccc(F)cc1)NCC1CCCO1 (centres undefined)	>57	i
CCOC(=O)c1c(-c2ccccc2)nnn1-c1nc(OCC)nc(N2CCCCC2)n1	>57	i
CSc1ccc2c(c1)[C@H](N1CCN(C)CC1)Cc1ccccc1S2	.	i
O=C(c1cc2ccccc2oc1=O)N1CCCC1	>57	i
Cc1cccc(N(CC(=O)NC2CCCC2)C(=O)CS(=O)CC(=O)Nc2ccc3c(c2)OCO3)c1 (centres undefined)	>57	i
COC(=O)CN1CCN(C(c2ccccc2)c2ccccc2)CC1	>57	i
COc1ccc(C2c3c(oc4ccccc4c3=O)C(=O)N2c2ccc(C)cn2)cc1OC (centres undefined)	.	i
CC1Cc2ccccc2N1C(=O)CSc1nnc(-c2ccc(S(=O)(=O)N3CCCCC3)cc2)o1 (centres undefined)	>57	i
CCC1CCCCN1CCCNC(=O)c1cn(CC(C)C)c(=O)c2cc(OC)c(OC)cc12 (centres undefined)	>57	i
CC(=O)c1cccc(NC(=O)CN(c2ccccc2)S(C)(=O)=O)c1	>57	i
Cn1c(C(=O)N2CCC(C(=O)N3CCOCC3)CC2)cc2sccc21	.	i
O=C(O)c1nn(-c2ccc(Cl)cc2)ccc1=O	>57	i
CCN(CCNC(=O)CC1Oc2ccccc2NC1=O)c1ccccc1 (centres undefined)	.	i
COc1ncc2nc(C)c(=O)n(Cc3ccc(F)cc3)c2n1	.	i
Cc1ccc(C)c(N2CCN(C(=O)C3CCN(c4nc(C)cc(C)n4)CC3)CC2)c1	>57	i
CCOC(=O)c1ccc(CC2S/C(=C(\C#N)C(C)=O)NC2=O)cc1 (centres undefined)	>26	.
O=C(Nc1cccc(-c2nc3ccccc3[nH]2)c1)c1ccco1	i	i
COc1ccccc1N1CCN(C(=O)c2ccncc2)CC1	>57	i
COC(=O)CSc1nnc(-c2ccco2)n1Cc1ccco1	>57	i
Cn1c(=O)[nH]c(=O)c2c1nc(N1CCN(c3cccc(Cl)c3)CC1)n2CCCc1ccccc1	>26	.
O=C(CC(=O)c1ccccc1)Nc1ccc2c(c1)OCCO2	.	i
Cc1cc(C)n(-c2nc3c(c(=O)[nH]c(=O)n3C)n2Cc2ccccc2)n1	>57	i
CCN(CC)c1ccc2c(C)c(CN3CCOCC3)c(=O)oc2c1	>57	i
CC1CCCC(C)N1C(=O)Cn1c(SCC(=O)NCc2ccc3c(c2)OCO3)nc2ccccc21 (centres undefined)	>57	i
Cc1csc2nc(CSc3nc4ccccc4o3)c(Br)n12	?	i
COc1ccccc1CNC(=O)c1cnc2sccn2c1=O	.	i
CCN(c1ccccc1)S(=O)(=O)c1ccc2[nH]cc(C(=O)NCCOC)c(=O)c2c1	>57	i
CCOC(=O)CSc1nc2sc(C)c(C)c2c(=O)[nH]1	>57	i
O=C(OCC(=O)N1CCOCC1)c1ccc[nH]c1=O	>57	i
CCOC(=O)c1cc(=O)n2nc(-c3ccccc3F)nc2s1	>57	i
CCCN1C(=O)c2ccc(C(=O)NCc3ccco3)cc2C1=O	>57	i
CCOC(=O)c1nnn(-c2nc(N3CCCC3)nc(N3CCCC3)n2)c1-c1ccccc1	>57	i
CCCc1cc(=O)n2[nH]c(NCc3ccccc3F)nc2n1	>57	i
CC/C=C\C[C@H]1C(=O)CC[C@@H]1CC(=O)O	.	i
O=C(CCC1CCCC1)Nc1ccon1	>57	i
O=C1CC(N2CCN(Cc3ccc4c(c3)OCO4)CC2)C(=O)N1CCc1ccccc1 (centres undefined)	.	i
NC(=O)CSc1nnc2n(-c3ccccc3)c(=O)c3c4c(sc3n12)CCCCC4	>26	.
O=C1c2ccccc2C2NC(=O)C3(CCCCC3)N12 (centres undefined)	>57	i
Cc1ccsc1C(=O)OCC(=O)NCC1CCCO1 (centres undefined)	>57	i
Clc1cccc(Cl)c1Cn1cnc2c(N3CCCCCC3)ncnc21	?	i
O=C(NCc1ccco1)c1ccccc1NS(=O)(=O)c1cccs1	>57	i

Some values from the entries so far.
Bst PK mod with NC(=O)CSc1nnc2n(-c3ccccc3)c(=O)c3c4c(sc3n12)CCCCC4 = >26
Bst PK mod with CCCN1C(=O)c2ccc(C(=O)NCc3ccco3)cc2C1=O = >57

Continued.
SMILES	Bst PK mod	TsaE inh
CC(=O)OC(C(=O)NCc1ccco1)c1ccncc1 (centres undefined)	>57	i
Cc1ccc(C)c(NC(=O)CSc2nnc([C@@H]3CCCN3C(=O)OC(C)(C)C)o2)c1	>57	i
CCN1CCN(C(=O)c2ccc3c(=O)n(CCC4=CCCCC4)c(=O)[nH]c3c2)CC1	>57	i
CC(C)NC(=O)CCCc1cn(C)c2ccccc12	>57	i
Cc1cccc(Nc2nc(N)nc(CN3CCN(c4ccccc4F)CC3)n2)c1	>57	i
Cc1ccc(S(=O)(=O)c2nc(-c3cccs3)oc2SCC(N)=O)cc1	9.1*	i
COc1cc(NC(=O)CSc2nccc(C)n2)c(C(=O)O)cc1OC	>57	i
CCn1c(SCC(=O)NC(=O)Nc2ccc3c(c2)OCCO3)nnc1-c1cccs1	.	i
Cc1ccc(SCc2nc(-c3cccnc3)no2)cc1	>57	i
COc1ccc(CNC(=O)c2onc(C)c2Cl)cc1	.	i
CCCOc1ccc2oc(=O)c3c(c2c1)CCCN3C(=O)CN1CCN(c2ncccn2)CC1	>57	i
O=S1(=O)C=CC(N2CCOCC2)C1 (centres undefined)	.	i
COc1cccc2c1OC1(C)CC2NC(=O)N1c1cccc(C(=O)N2CCN(c3ccccn3)CC2)c1 (centres undefined)	>57	i
COc1cccc(OC)c1C(=O)N1CC(C)OC(C)C1 (centres undefined)	>57	i
Cc1cc(C)nc(NC(=NCc2ccc3c(c2)OCO3)NC(=O)Nc2ccccc2)n1	>57	i
CCOC(=O)C1=C(N)n2c(s/c(=C/c3ccco3)c2=O)=C(C(=O)OC)C1c1ccco1 (centres undefined)	>57	i
Nc1nc(F)nc2c1ncn2[C@@H]1O[C@H](CO)[C@@H](O)[C@@H]1O	>26	.
CC1(C)CC(=O)C(Sc2nnc(-c3ccc(NS(C)(=O)=O)cc3)n2Cc2ccco2)C(=O)C1	>57	i
COC(=O)c1cccc(-n2nnnc2SCC(=O)Nc2cc(C)on2)c1	>57	i
CC(=O)NCCCCCCNC(C)=O	>26	.
CCC(Sc1ccccn1)C(=O)Nc1nnc(C)s1 (centres undefined)	>57	i
CC(=O)Nc1cccc(-c2nnc(SCc3ccccc3C#N)n2C)c1	>57	i
O=c1cc(Nc2ccc3c(c2)OCCO3)[nH]c(=O)n1C1CCCCC1	>57	i
O=C(O)C1C(c2ccccc2)C(C(=O)Oc2ccc(O)cc2)C1c1ccccc1 (centres undefined)	>57	i
COc1ccc(Cc2nnc(NC(=O)Cc3cccs3)s2)cc1OC	>57	i
COC(=O)c1ccccc1NC(=O)CSc1nnc(CNS(=O)(=O)c2ccc(C)cc2)n1C	>57	i
COc1cc2nc3c4ccccc4n(CC#N)c3nc2cc1OC	>57	i
COc1ccc(S(=O)(=O)Cc2ccc(C(=O)N3CCc4ccccc4C3)o2)cc1	.	i
Cc1ccc(C)c2[nH]c(=O)c(CN(CCN3CCOCC3)Cc3nnnn3CC3CCCO3)cc12 (centres undefined)	>57	i
Cc1nc2ccccc2nc1CSc1nncs1	>57	i
O=C(CSc1ncn[nH]1)N1CCN(c2nnc(-c3ccccc3)c3ccccc23)CC1	>57	i
O=C(CN1CCCC1)Nc1ccc(NC(=O)Nc2ccccc2)cc1	.	i
O=c1[nH]cnc2c1sc(=S)n2-c1ccccc1	.	i
COc1ccc(S(=O)(=O)Nc2cccc(C)n2)c2ccccc12	?	i
COC(=O)N1CN(C(=O)OC)CN(C(=O)OC)C1	>57	i
CC1(C)CC(=O)c2cc(OCC(=O)NCCN3CCCc4ccccc43)ccc2O1	>57	i
O=C(c1ccco1)N1CCN(C(=O)C2CCCO2)CC1 (centres undefined)	>57	i
COc1ccccc1CNC(=O)CCn1c(=O)sc2ccccc21	?	i
CC(C)Sc1nc(SCC(=O)NCc2ccco2)c2c3c(sc2n1)COC(C)(C)C3	>57	i
COc1ccccc1NC(=O)NCC(=O)Nc1ccc(F)c(F)c1	>57	i
O=C1C(=O)c2ccccc2C(O)=C1Cc1ccccc1	.	i
O=C(c1ccccc1-c1nc2ccccc2[nH]1)N1CCOCC1	>57	i
O=C(/C=N/O)NCCN1CCCCC1	>57	i
CC(CNC(=O)c1cncc(O)c1)NC(=O)c1cncc(O)c1 (centres undefined)	>57	i
COc1ccc(CCNC(=O)c2ccn[nH]2)cc1OC	>57	i
CN1CCN(C(=O)Cn2c(=O)oc3cc(S(=O)(=O)NCc4ccccc4)ccc32)CC1	.	i
CCN1CCN(c2ccc(NC(=O)Cc3ccccc3)cc2)CC1	>57	i
CCCCCCn1cc(C(=O)O)c(=O)c2ccccc21	>11	.
NCCC[C@@H](CC(=O)N[C@@H]1CCCC[C@H]1C(=O)N[C@H](CC(=O)N[C@@H](CCC(=O)O)CC(=O)O)Cc1c[nH]c2ccccc12)NC(=O)C[C@H](CO)NC(=O)[C@@H]1CNCC[C@H]1N	.	i
Cc1c(N=Cc2cccs2)c(=O)n(-c2ccccc2)n1C	.	i
CCOC(=O)c1ccccc1NC(=O)c1ccc(Cl)c(S(=O)(=O)N2CCOCC2)c1	>57	i
CC1(C)CC(=O)C(C=NCC(O)c2ccccc2)=C(O)C1 (centres undefined)	>26	.
CCOc1ccc(-n2c(=S)sc3c(=O)[nH]c(SCC(=O)NCc4ccco4)nc32)cc1	>57	i
CC(=O)N1CCC2(CCN(Cc3ccccc3)CC2)CC1	.	i
O=C(Nc1ccc(Cl)cc1)NC1CCS(=O)(=O)C1 (centres undefined)	.	i
COC(=O)c1ccc(OC)c(CSc2nnc(COc3ccc(OC)cc3)o2)c1	>57	i
CC(=O)c1cccc(NC(=O)C2CCCN2S(=O)(=O)c2cccc3cccnc23)c1 (centres undefined)	.	i
CCN1CCN(C(c2ccccc2)c2nnnn2CCc2ccc(OC)c(OC)c2)CC1 (centres undefined)	>57	i
COC(=O)[C@@]1(Cc2ccc(OC)cc2)[C@H]2c3cc(C(=O)N4CCCC4)n(Cc4ccc(O)c(OC)c4)c3C[C@H]2CN1C(=O)c1ccccc1	.	i
Cc1nc2ccccc2c2nc(NC(=O)Cc3ccccc3)nn12	?	i
Further results
SMILES	Bst PK mod	TsaE inh
COc1c(Cl)ccc(Cl)c1C(=O)NC(=O)N1CCOCC1	?	i
O=C(Nc1cccnc1)c1cc(-c2cccs2)on1	>57	i
COc1cc(OC)cc(OCC(O)Cn2ccnc2C)c1 (centres undefined)	>57	i
Cc1cccc(CNc2ccnc(-c3ccoc3)n2)c1	.	i
Cn1c(=NC(=O)c2cnccn2)sc2ccccc21	?	i
O=C(OCc1c(Cl)nc2sccn12)c1cc2c(s1)CCCC2	>57	i
CCOC(=O)N1CCN(C(=O)CCn2c(=S)[nH]c3cc(OCC)c(OCC)cc3c2=O)CC1	>57	i
O=C(Nc1ccc2c(c1)OCCO2)NC12CC3CC(CC(C3)C1)C2	.	i
CCOC(=O)N1CCC(c2nc(C)sc2C(=O)O)CC1	>57	i
Cc1ccc(NCc2nnc(SCC(N)=O)n2CCc2ccccc2)cc1	>57	i
COc1ccc(S(=O)(=O)N2CCOCC2)cc1C(=O)Nc1ccon1	>57	i
CCN1C(=O)/C(=C/N2CC(C)CC(C)C2)SC1=S (centres undefined)	>57	i
Cc1ccccc1-c1nc(CS(=O)(=O)CC(=O)NCCCN2CCCC2=O)c(C)o1	.	i
CCCCOc1cccc(C2(C(=O)O)CCCC2)c1	.	i
Cn1c(C(=O)NCCN2CCc3ccccc3C2)cc2c(=O)n(C)c3ccccc3c21	.	i

Some of the entries above, reformatted.
| SMILES | Bst PK mod | TsaE inh |
| --- | --- | --- |
| Cn1c(=NC(=O)c2cnccn2)sc2ccccc21 | ? | i |
| O=C(OCc1c(Cl)nc2sccn12)c1cc2c(s1)CCCC2 | >57 | i |
| CCOC(=O)N1CCN(C(=O)CCn2c(=S)[nH]c3cc(OCC)c(OCC)cc3c2=O)CC1 | >57 | i |
| O=C(Nc1ccc2c(c1)OCCO2)NC12CC3CC(CC(C3)C1)C2 | . | i |
| CCOC(=O)N1CCC(c2nc(C)sc2C(=O)O)CC1 | >57 | i |
| Cc1ccc(NCc2nnc(SCC(N)=O)n2CCc2ccccc2)cc1 | >57 | i |
| COc1ccc(S(=O)(=O)N2CCOCC2)cc1C(=O)Nc1ccon1 | >57 | i |

(further entries)
SMILES	Bst PK mod	TsaE inh
COC(=O)CSc1nc(N)nc(C)c1Br	>26	.
Cc1cc2n(n1)C(c1cn(-c3ccccc3)nc1C)Nc1ccccc1-2 (centres undefined)	.	i
Cc1oc(C(=O)O)cc1COc1cccc2cccnc12	.	i
O=S1(=O)CCC(NS(=O)(=O)/C=C/c2ccccc2)C1 (centres undefined)	>57	i
Cc1ccc2oc(=O)c3cnn(CC(=O)NCCN(C)C)c3c2c1	.	i
CS(=O)(=O)N1CCC2(CC1)CN(C(=O)Nc1ccccc1)C2	.	i

Arranged by number of heavy atoms (rising): 4 of the compounds above.
SMILES	Bst PK mod	TsaE inh
O=S1(=O)CCC(NS(=O)(=O)/C=C/c2ccccc2)C1 (centres undefined)	>57	i
Cc1ccc2oc(=O)c3cnn(CC(=O)NCCN(C)C)c3c2c1	.	i
Cc1cc2n(n1)C(c1cn(-c3ccccc3)nc1C)Nc1ccccc1-2 (centres undefined)	.	i
Cn1c(C(=O)NCCN2CCc3ccccc3C2)cc2c(=O)n(C)c3ccccc3c21	.	i
